CBX7 inh: inhibitors of human CBX7 binding to H3K27me3 peptide; 66,000 tested, 1.1% active; O95931; normalised signal (fraction of DMSO) (test concentration not listed); AlphaScreen His6-CBX7 / biotin-H3K27me3 peptide binding; active compounds read low; in the data active = normalised signal below about 0.5;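 also: 100 nL library stock added to about 20 µL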
Target sequence (O95931 whole entry, looked up): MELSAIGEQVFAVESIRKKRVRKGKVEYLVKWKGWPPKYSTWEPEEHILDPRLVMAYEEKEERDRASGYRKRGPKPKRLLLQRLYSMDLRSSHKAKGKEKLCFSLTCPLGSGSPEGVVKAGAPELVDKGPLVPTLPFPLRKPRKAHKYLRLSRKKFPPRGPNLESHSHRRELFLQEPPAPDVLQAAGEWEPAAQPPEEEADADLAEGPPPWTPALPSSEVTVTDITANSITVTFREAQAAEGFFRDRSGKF
CBX7 inh z-score: further read-out of CBX7 inh, marked with its call; z-score; measured here: z-score of CBX7 signal; some inactives read as strong as hits; reference of the scale not given here;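 same signal on another scale; lower means less binding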
* marks the source's active call; other numbers are inactive results; & = joins results of further samples.

Values in the order – CBX7 inh	CBX7 inh z-score
COc1ccc(-c2nc3cnccn3c2Nc2ccc(OC)c(OC)c2)cc1
  0.96	-1.6
CSc1nc2cc(Oc3ccc4ccccc4c3)c(Cl)cc2[nH]1
  1	0.63
COC(=O)c1[nH]nc(C(=O)N2CCOCC2)c1C(=O)c1ccccc1
  1.1	1.2
Cc1sc2ncnc(SCC(=O)O)c2c1C
  1.2	1.3
Cc1cccc2c1-c1sc(C(=O)NC3CCCC(C)C3C)cc1CO2 (stereo not given)
  1.3	9.2
CCN(CC)CCNC(=O)c1cn(C)c(=O)c2c1c1ccccc1n2C
  1.1	2.2
Cc1ccccc1OCc1nn2c(-c3ccccc3Cl)nnc2s1
  1	0.62
CC1(C)CC(=O)c2c(nn(-c3ccccn3)c2-c2ccc(F)cc2)C1
  0.99	-0.31
COc1cc(NS(=O)(=O)c2ccc(NC(=O)c3ccccc3)cc2)nc(OC)n1
  1.3	3
CCn1cc(C(=O)O)c(=O)c2cc(S(=O)(=O)N3CCc4ccccc4C3)ccc21
  1	0.45
CCc1ccccc1NC(=O)c1cccc2c1C(=O)N(c1ccc(OC)cc1)C2
  0.14*	-16*
Cc1ccc(-n2c3c(cc(C(=O)Nc4cccc(F)c4)c2=O)C(=O)CC(C)(C)C3)cc1
  1.1	0.31
CCc1ccc(-c2nc(CN3CCCC(C(=O)NC(C)c4ccccc4)C3)c(C)o2)cc1 (stereo not given)
  0.98	-0.21
COc1ccc(C)cc1NC(=O)c1sc2ncn(CC(=O)N3CCC(C)CC3)c(=O)c2c1C
  0.97	-0.21
CCOC(=O)CNC(=O)CN1C(=O)CC(c2ccccc2)Sc2ccccc21 (stereo not given)
  1.1	1.4
CCc1nc(SCC(=O)NC(C)c2ccccc2)n[nH]1 (stereo not given)
  1	-0.14
N#Cc1ccccc1CSc1nc(-c2ccccc2)c(-c2ccccc2)o1
  1&0.96	0.073&-0.92
Brc1ccc(-c2nnc3ccc(N4CCN(c5ccccc5)CC4)nn23)cc1
  1.1	0.91
Cn1c(C(=O)N2CCC(Cc3ccccc3)CC2)cc2sc(Cl)cc21
  0.92	-3.2
O=C(Cn1c(SCc2ccc(F)cc2)nc2ccncc21)N1CCCC1
  1.3	2.7

4 consecutive compounds from above:
Values in the order – CBX7 inh	CBX7 inh z-score
COc1ccc(-c2nc3cnccn3c2Nc2ccc(OC)c(OC)c2)cc1
  0.96	-1.6
CSc1nc2cc(Oc3ccc4ccccc4c3)c(Cl)cc2[nH]1
  1	0.63
COC(=O)c1[nH]nc(C(=O)N2CCOCC2)c1C(=O)c1ccccc1
  1.1	1.2
Cc1sc2ncnc(SCC(=O)O)c2c1C
  1.2	1.3

More compounds:
Values in the order – CBX7 inh	CBX7 inh z-score
COc1cccc(NCc2nc(-c3ccccc3)no2)c1
  1.1	1.3
COc1ccc(CCC2NCCn3cccc32)cc1OC (stereo not given)
  1.1	1.1
Clc1ccc(-c2csc3ncnc(Oc4ccc(OCc5ccccc5)cc4)c23)cc1
  1	0.023
Cc1cc(NC(=O)c2ccc3c(c2)C(=O)N(CC(C)C)C3=O)no1
  1.2	3
CCN1CCN(Cc2nc3c(c(=O)[nH]c(=O)n3C)n2CCc2ccccc2)CC1
  1	1.3
O=C(Nc1nc2ccccc2n1CCN1CCCCC1)c1cccc(Cn2cc(Br)cn2)c1
  0.96	-0.95
CCN(CC)C(=O)Cn1cnc2sc(C(=O)Nc3cc(OC)ccc3OC)c(C)c2c1=O
  1	0.28
Cc1ccc(CCNC(=O)CC2Oc3ccc(C)cc3NC2=O)cc1 (stereo not given)
  0.95	-1.1
Cc1cccc(CCNC(=O)CN2CC(c3ccccc3)CC2=O)c1 (stereo not given)
  0.94	-1.4
O=C(NCc1ccccn1)c1cc(-c2ccccc2)nc2ccccc12
  0.92	-3.6
Cc1nn(-c2ccc(Cl)cc2Cl)c2c1C(=O)CC(C)(C)C2
  1.1	3.3
COc1ccc(-c2ccc(=O)n(CC(=O)Nc3ccc(C)c(F)c3)n2)cc1
  1	0.7
CCN(CC)CCC(O)(c1ccccc1)C1CCCCC1 (stereo not given)
  1.1	2.6
Cc1ccc(-c2nc(C(=O)NCCc3ccccc3)c(C)o2)cc1
  1	0.12
O=C(Nc1ccc(-c2nc3ccccc3o2)cc1)c1cccc(Br)c1
  1	0.76
CN(CC(=O)Nc1ccccc1Cl)S(=O)(=O)c1cccc2cccnc12
  0.99	-0.32
N#Cc1ccc(NC(=O)c2cc(-c3ccc(Cl)cc3)on2)cc1
  0.97	-1.1
Cc1onc(-c2ccccc2Cl)c1C(=O)Nc1ccc(C(C)C)cc1
  1.1	0.063
CN(C)c1cccc(C(=O)Nc2ccc3nc4n(c(=O)c3c2)CCCCC4)c1
  0.98	-0.77
O=c1cc(N2CCOCC2)[nH]c(=O)n1Cc1ccc(F)cc1
  1	0.069
Fc1cccc(-c2nc3ccccc3nc2-c2cccc(F)c2)c1
  1.3	2.2
CN1CC(=O)NC1=NC(=O)Nc1ccc2c(c1)N(C)C(=O)CS2
  0.98	-0.84
O=C(Nc1c(C(=O)NCCc2ccccc2)cnn1-c1ccccc1)c1ccccc1
  1	0.16
CC(=O)N1CCc2cc(S(=O)(=O)NC(CC(C)C)C(=O)Nc3ccc(C)c(C)c3)ccc21 (stereo not given)
  0.93	-1.4
Cc1ccc(Cc2c(C)nc3c(C(=O)NC4CCCC(C)C4C)c[nH]n3c2=O)cc1 (stereo not given)
  0.97	-0.66
Cc1cc(C(=O)NCCN(C)C)n(-c2ccccc2)n1
  1	0.13
Cc1ccc2c(C(=O)CNc3nncs3)c(C)[nH]c2c1
  1.4	4.2
Cc1ccc(S(=O)(=O)N2CC=C(C(=O)NCc3ccc(Cl)cc3)CC2)cc1
  0.99	-0.13
O=C(NC1CCCC1)c1ccc2c(c1)N(Cc1cccc(Cl)c1)C(=O)c1ccccc1S2(=O)=O
  0.92	-0.52
O=C1CN(C(=O)c2ccc(F)cc2)C(c2ccccc2)c2cc(Cl)ccc2N1 (stereo not given)
  1	0.89
CCOC(=O)c1cnc2ccc(F)cc2c1NCCc1ccc(OC)c(OC)c1
  1.1	3.2
CC(C)Oc1ccccc1NC(=O)Nc1ccc(Br)cc1
  0.83	-0.76
O=C(Nc1cccnc1)c1cc(-c2ccc(Br)cc2)on1
  1	-0.03
CCC(=O)N1CCc2cc(S(=O)(=O)N(C)CC(OC)OC)ccc21
  1.1	0.89
Cc1cccc(Oc2nnc(-c3cccs3)c3ccccc23)c1
  0.94	-0.063
CCCOc1ccc(C2C(=O)N(C3CCCCCC3)CC(=O)N2Cc2ccccc2)cc1OC (stereo not given)
  1.5	1.8
COc1cccc2c3c(c(C)nc12)CC(C)S3 (stereo not given)
  0.76	-0.93
O=C(Nc1cccc(-c2nc3ccc(NC(=O)c4cccnc4)cc3o2)c1)c1cccnc1
  1.1	2.2
CCC1CCCCN1CCCNC(=O)c1ccc(NC2=NC3CS(=O)(=O)CC3S2)cc1 (stereo not given)
  1	0.84
CCn1c(C(C)NC(=O)c2ccc(Cl)cc2)nc2ccccc21 (stereo not given)
  1.2	1.6
CN(CCc1ccccn1)Cc1ccc(Cl)cc1
  0.68	-2.5
COc1cc2c(cc1OC)C(c1ccc(OC(C)=O)cc1)CC(=O)N2 (stereo not given)
  1	1.5
COc1cccc(CCNC2CC(=O)N(c3ccc(NC(C)=O)cc3)C2=O)c1 (stereo not given)
  0.92	-2.2
O=S(=O)(NCCCc1nc2ccccc2[nH]1)c1ccc(Cl)cc1
  1	0.61
COc1ccc(Cl)cc1N(C)C(=O)Cn1ncc2c1-c1ccccc1OC2
  0.83	-5
Brc1ccc2nc(-c3ccccc3)cn2c1
  1.1	2.6
O=C(Nc1cccc(-c2nc3ccccc3[nH]2)c1)c1ccc(Cl)cc1
  1.3	2.5
O=C(NC1CCCCCC1)c1n[nH]c(=O)c2ccccc12
  1.1	2.9
CCCNC(=O)C1CCN(C(=O)c2cc3sccc3n2C)CC1
  1.1	0.95
Cc1ccc(NCc2nc3ccccc3n2CCOc2ccc(C)cc2)cc1
  0.8	-7.2
CCC(Cc1ccccc1)NC(=O)CN1C(=O)CC(C)(C)S(=O)(=O)c2ccccc21 (stereo not given)
  1	0.97
CC1CCC(N2CC(=O)N(CCc3ccc(Cl)cc3)C(c3ccc(F)cc3)C2=O)CC1 (stereo not given)
  0.98	-0.42
O=C(Nc1cccc(-c2nc3ncccc3o2)c1)c1ccc(-c2ccc(F)cc2)o1
  0.82	-1.5
CCCOc1cccc(C(=O)Nc2ccc(-c3nc4ccc(C(=O)c5ccccc5)cc4[nH]3)cc2)c1
  1.1	1.2
CCc1ccc(Nc2cc(C(=O)NCCN3CCOCC3)c3ccccc3n2)cc1
  1	0.32
CCCCN(CC)S(=O)(=O)c1ccc2[nH]c(=O)cc(C(=O)NCCN(CC)c3ccccc3)c2c1
  0.92	-1.6
CCCCc1nc(S(=O)(=O)c2ccc(Cl)cc2)c(N(C)C)o1
  1	-0.025
O=S(=O)(c1ccccc1)c1nc(-c2ccc(F)cc2)oc1SCc1ccccc1F
  0.89	-0.92
COC(=O)c1cn(-c2ccccc2)nc1-c1ccc(F)cc1
  1	0.32
COc1ccc(-c2cc(C(F)(F)F)n3ncc(C(=O)NCc4cccnc4)c3n2)cc1
  1	0.85

Following part
Values in the order – CBX7 inh	CBX7 inh z-score
Cc1cccc(OCc2nnc(NC(=O)C3CCCCC3)s2)c1
  1	0.92
CCOc1cc2[nH]c(=O)n(CCCN3CCN(c4cccc(Cl)c4)CC3)c(=O)c2cc1OCC
  1.1	1.2
Cc1ccc(-c2cc(-c3c[nH]c4ccccc34)[nH]n2)cc1
  0.75	-2.8
CCOC(=O)c1c(NC(=O)COc2ccccc2C)sc2c1CCN(C(C)=O)C2
  0.89	-3
Clc1ccc(OCc2nc(-c3ccccc3)no2)c(Cl)c1
  1.9	6.6
Cn1cc(CC(=O)NCCN2CCN(c3cccc(Cl)c3)CC2)c2ccccc21
  0.85	-5.1
CC(NC(=O)C1CCN(c2nnc(-n3cccc3)s2)CC1)c1ccccc1 (stereo not given)
  1	0.79
CCOc1ccc(C2C(C(=O)Nc3cccc(C)n3)=C(C)NC3=C2C(=O)CCC3)cc1 (stereo not given)
  1.1	1.4
CCC(C(=O)N1CC(=O)Nc2ccc(Cl)cc2C1c1ccccc1)c1ccccc1 (stereo not given)
  0.99	-0.017
O=C(CSc1nnc2nc[nH]n12)Nc1cnccn1
  1	0.22
CC(NS(=O)(=O)c1ccccc1)C(c1cccs1)N1CCN(c2ccc(F)cc2)CC1 (stereo not given)
  0.87	-3.2
CCOc1ccc(CNC(=O)Cc2cn(C)c3ccccc23)cc1
  0.97	-1.2
Cc1cccc2c1-c1sc(C(=O)NCCc3ccsc3)cc1CO2
  1.2	5
CCCNC(=O)c1ccc2c(c1)ncn2-c1ccc(OCc2ccccc2)cc1
  1.1	1
CCN(CC)c1cc(C)c2cc(NC(=O)c3cccc(F)c3)ccc2n1
  1	0.23
O=C(Nc1cccc2c1CCCC2)C1CCN(S(=O)(=O)c2cccs2)CC1
  1&0.96	-0.055&-1
COc1ccc(CCN2C(=O)C(Oc3ccccc3C)C2c2cccc(Cl)c2Cl)cc1OC (stereo not given)
  0.93	-0.23
CCOc1ccc(C(=O)c2cn(Cc3cccc(OC)c3)c3ccc(F)cc3c2=O)cc1
  0.82	-1.8
CCN(Cc1c(C)[nH]c2ccccc2c1=O)C1CCCCC1
  1	-0.053
Cc1cccnc1NC(=O)Cn1ncc2c1-c1ccccc1OC2
  1.1	0.73
Clc1ccc2nc(-c3ccncc3)c(Nc3ccc4c(c3)OCCO4)n2c1
  0.76	-6.5
COc1cccc(C2CC(c3ccccc3C)n3ncnc3N2)c1 (stereo not given)
  0.79	-3
CN1C2CCC1CC(N(CCc1ccccc1)C(=O)c1ccccc1)C2 (stereo not given)
  1	0.84
O=C(CC1(O)C(=O)N(CCc2ccccc2)c2ccccc21)c1ccccc1 (stereo not given)
  0.96	-1
Cc1ccc(-c2nn3c(C)nnc3s2)cc1NC(=O)c1sc2ccccc2c1Cl
  1	1.4
CCOc1ccc(OCC)c(NC(=O)c2ccc3c(c2)N(Cc2ccccc2)C(=O)CS3=O)c1 (stereo not given)
  0.72	-4.4
O=C(CSc1nnc(-c2ccc(F)cc2)o1)Nc1nc(-c2ccccc2)cs1
  0.93	-0.16
CCCN(CCC)C(=O)c1c[nH]c2ccc(S(=O)(=O)N(C)c3ccc(Cl)cc3)cc2c1=O
  1.1	1.6
N#Cc1cc(Oc2ccc(Br)cc2)nc2ccccc12
  1.1	2.4
CN(C)CCNC(=O)C1CCC(=O)N1Cc1ccc(F)cc1 (stereo not given)
  1	-0.025
COCCCNC(=O)c1ccc2c(c1)N(Cc1cccc(C)c1)C(=O)c1ccccc1S2
  0.99	-0.24
O=C(C1CCCN(S(=O)(=O)c2cnc[nH]2)C1)N(CCc1ccccc1)Cc1ccccc1 (stereo not given)
  1	0.9
COc1ccc(Nc2ncc(C(=O)NCCN3CCOCC3)c3ccccc23)cc1
  1	0.8

Part of the list above, field by field:
SMILES: CCCN(CCC)C(=O)c1c[nH]c2ccc(S(=O)(=O)N(C)c3ccc(Cl)cc3)cc2c1=O
  CBX7 inh = 1.1	CBX7 inh z-score = 1.6

SMILES: N#Cc1cc(Oc2ccc(Br)cc2)nc2ccccc12
  CBX7 inh = 1.1	CBX7 inh z-score = 2.4

SMILES: CN(C)CCNC(=O)C1CCC(=O)N1Cc1ccc(F)cc1 (stereo not given)
  CBX7 inh = 1	CBX7 inh z-score = -0.025

SMILES: COCCCNC(=O)c1ccc2c(c1)N(Cc1cccc(C)c1)C(=O)c1ccccc1S2
  CBX7 inh = 0.99	CBX7 inh z-score = -0.24

High-throughput results (PubChem)

These rows are one share of the data; the hit share may differ from the screen's.
